# Compound activity from PubChem BioAssay.
# PME-1 inh = blocks human protein phosphatase methylesterase 1; recombinant PME-1, FP-Rh probe fluorescence polarization; inhibition, % at 5.9 µM; 0.53% of 320,000 active;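 active = inhibition above the campaign mean of all compounds plus 3 SD, cut at about 26% in these data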;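 note: competitive labeling of PME-1 active site by serine hydrolase directed probe; 0% = PME-1 with DMSO and 100% = wells lacking PME-1 enzyme; inhibitors block probe labeling so polarization falls and inhibition rises; many of its hits are not listed in these tables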
# Target sequence (Q9Y570 whole entry, looked up): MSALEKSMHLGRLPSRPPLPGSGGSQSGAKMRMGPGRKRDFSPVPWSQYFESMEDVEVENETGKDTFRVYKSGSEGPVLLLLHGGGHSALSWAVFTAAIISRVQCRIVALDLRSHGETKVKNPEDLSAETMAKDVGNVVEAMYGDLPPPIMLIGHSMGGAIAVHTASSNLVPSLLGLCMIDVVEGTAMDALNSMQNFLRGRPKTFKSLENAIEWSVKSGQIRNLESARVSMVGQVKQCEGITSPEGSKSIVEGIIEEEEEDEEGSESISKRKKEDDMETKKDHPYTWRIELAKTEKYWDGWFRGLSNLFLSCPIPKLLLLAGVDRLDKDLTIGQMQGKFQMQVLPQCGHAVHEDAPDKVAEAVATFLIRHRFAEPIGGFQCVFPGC
# MEX-5 binding = C. elegans MEX-5 TCR-2 RNA binding activity. Q9XUB2. MEX-5/FITC-TCR2 RNA binding, fluorescence polarization; stronger effect = lower value. activity score (negative = inhibition of binding), % at 10 µM. 0.38% of 300,000 active;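 active = inhibition past about -25% in most replicates, and total fluorescence under double the plate's negative control median, limit read from the data; inconclusive = replicates evenly split on the limit, or fluorescence at least double controls; inactive = too little inhibition in most replicates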;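 note: 0% = DMSO and -100% = 5 µM competing unlabeled TCR2 RNA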
# Target sequence (Q9XUB2 whole entry, looked up): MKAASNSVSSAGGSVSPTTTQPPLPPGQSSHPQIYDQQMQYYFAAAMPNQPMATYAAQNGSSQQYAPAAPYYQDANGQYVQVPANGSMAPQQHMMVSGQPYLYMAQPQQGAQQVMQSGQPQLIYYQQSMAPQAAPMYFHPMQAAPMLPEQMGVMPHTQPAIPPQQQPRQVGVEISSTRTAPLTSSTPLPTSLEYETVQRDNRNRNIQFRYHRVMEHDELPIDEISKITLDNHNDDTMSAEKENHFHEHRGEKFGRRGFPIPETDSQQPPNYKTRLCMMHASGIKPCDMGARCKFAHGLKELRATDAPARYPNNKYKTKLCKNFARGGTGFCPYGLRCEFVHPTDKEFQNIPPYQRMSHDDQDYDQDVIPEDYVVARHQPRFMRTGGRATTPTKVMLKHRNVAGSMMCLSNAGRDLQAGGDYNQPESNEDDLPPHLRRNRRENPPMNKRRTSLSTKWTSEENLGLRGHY
# PAD4 inh = blocks human protein arginine deiminase 4; recombinant PAD4, RCA probe fluorescence polarization; inhibition, % at 6.36 µM; 0.41% of 330,000 active;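 active = percent inhibition above a cutoff equal to the mean of all tested compounds plus 3 SD, cut at about 15% in these data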;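 note: 0% = PAD4 with RCA probe and DMSO and 100% = probe without PAD4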
# GLD-1 RNA inh = GLD-1-TGE RNA interaction inhibition (C. elegans); Q17339; AID 2280; 0.44% of 320,000 active; inhibition, % at 5.96 µM; purified GLD-1 + fluorescein TGE RNA, fluorescence polarization;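 active = percent inhibition above a per-plate cutoff, the plate mean of test compounds plus 3 SD, cut at about 30% in these data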;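 note: 0% = DMSO wells with GLD-1 and probe and 100% = wells lacking GLD-1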
# TPT1 inhibitor = C. albicans TPT1 enzyme inhibition. inhibition, % at 5 µM. recombinant caTPT1, FP RNA substrate dephosphorylation. 0.81% of 300,000 active;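 active = inhibition above the mean of all tested compounds plus 3 SD, set per screening campaign, cut at about 24% in these data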;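 note: plate controls were DMSO alone for no effect and ferristatin control at 100 nM for full effect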
# GSTO1 inh = GSTO1 inhibition, counter-screen for RBBP9 inhibitors; P78417; recombinant GSTO1, activity-based probe fluorescence polarization; inhibition, % at 5.96 µM; 1.1% of 300,000 active; AID 1974;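 active = inhibition above the campaign mean inhibition plus 3 SD, cut at about 35% in these data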;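 note: 0% = GSTO1-1 with DMSO and 100% = wells lacking GSTO1-1 enzyme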
# Target sequence (P78417 whole entry, looked up): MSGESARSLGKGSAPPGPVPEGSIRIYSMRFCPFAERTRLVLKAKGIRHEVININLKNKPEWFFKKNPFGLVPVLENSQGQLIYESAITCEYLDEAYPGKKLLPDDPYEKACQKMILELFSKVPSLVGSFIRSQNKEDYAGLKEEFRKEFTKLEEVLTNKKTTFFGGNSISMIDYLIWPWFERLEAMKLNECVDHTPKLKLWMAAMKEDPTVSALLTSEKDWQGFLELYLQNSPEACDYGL
# Fam108B counter = Fam108B inhibition, counter-screen for RBBP9 inhibitors | inhibition, % at 9.51 µM | 0.33% of 300,000 active | recombinant Fam108B, FP-Rh probe fluorescence polarization | AID 1947;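 active = inhibition above the screen mean inhibition plus 3 SD, computed separately per campaign, cut at about 18% in these data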;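 note: inhibitors lower polarization as less probe binds the enzyme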
# * = called active by the depositor; ? = inconclusive; nt = not tested or not shown; & = joins results of further samples; ! = a repeat was not active. Not all compounds are listed; rates above refer to the full screens.
# Values in the order – PME-1 inh	MEX-5 binding	PAD4 inh	GLD-1 RNA inh	TPT1 inhibitor	GSTO1 inh	Fam108B counter
- O=C1c2cccnc2C(Nc2ccc(Br)cc2Br)N1Cc1cccs1 (stereo not given)
 : 13	1.4	1	10	0	-3	0
- CC(=O)[C@H]1[C@H](C#N)C[C@H]2[C@@H]3CC=C4C[C@@H](O)CC[C@]4(C)[C@H]3CC[C@@]21C
 : -29	-0.1	-9	7	-1	-4	-7
- CCCn1c(N2CCN(S(=O)(=O)Cc3ccccc3)CC2)nc2ccccc21
 : 0	-0.8	-1	-4	1	1	3
- CCn1c2ccc(OC)cc2c2nc3ccccc3nc21
 : 7	?	-5	-1	-4	-2	1
- CCOc1cccc2sc(NC(=O)c3ccc(Br)s3)nc12
 : -34	-0.4	3	7	-1	-11	-36
- COc1ccc(/C=N/NC(=O)CN2CCSCC2)cc1C
 : 4	1.2	-1	3	-2	2	-2
- Cc1cc2c(C)nc(N/N=C/c3ccccc3)nc2o1
 : 4	-3.2	-3	-2	-1	-2	1
- CCc1cc2c(NC(C(=O)O)C(C)C)ncnc2s1 (stereo not given)
 : -1	0.8	-1	4	-3	2	3
- O=C(CCN1CCCC1)c1cccs1
 : 1	-2.6	-1	-8	-1	1	-3
- C[C@H]1C[C@@H]2[C@H]([C@@H](O)C[C@@]3(C)[C@H]2CC[C@]3(O)C(=O)CO)[C@@]2(C)C=CC(=O)C=C12
 : -2	0.7	-3	5	-1	-1	1
- C/C(=N/NC(=O)c1cccs1)c1ccc(NC(=O)COc2ccc(Cl)cc2Cl)cc1
 : -12	2.0	-3	-3	0	-5	-16
- CCCCc1nc(Cl)c(CO)n1Cc1ccc(-c2ccccc2-c2nn[nH]n2)cc1
 : 0	-1.2	1	2	-2	7	2
- O=C(O)[C@@H](O)[C@H](O)C(=O)O
 : -5	0.8	3	-2	1	7	2
- COc1cc(NC2c3ncccc3C(=O)N2Cc2ccco2)cc(OC)c1 (stereo not given)
 : -2	-2.0	2	8	2	4	1
- Cc1c(NC(=S)Nc2ccccc2C(F)(F)F)cccc1[N+](=O)[O-]
 : -3	-0.5	-4	-3	-3	-4	6
- COCCCn1c(=N)c(C(=O)NCc2ccc3c(c2)OCO3)cc2c(=O)n3ccccc3nc21
 : -1	-9.1	-6	-1	5	11	2
- CSc1ccc2c(c1)C(N1CCN(C)CC1)Cc1ccccc1S2 (stereo not given)
 : 4&-9	3.7&-0.9	-7&-3	1&0	2&1	2&8	0&-1
- CCOCCCNC(=O)CN1CCN(c2ccc(F)cc2)CC1
 : 0	-0.3	0	-2	2	-7	1
- Cc1cc2c(cc(C(=O)NCCCN3CCOCC3)n2Cc2ccc(Cl)cc2)o1
 : 0	-1.4	0	6	-1	-5	4
- O=C(N/N=C/c1nn(-c2ccccc2)cc1-c1ccc(Cl)cc1)c1ccncc1
 : -3	1.4	1	-4	-2	1	-27
- Cc1nc(-c2cccnc2)sc1C(N)=O
 : 4	-1.0	0	7	-2	-4	-2
- CC1CN(c2nc3c(c(=O)n(Cc4ccc(Cl)c(Cl)c4)c(=O)n3C)n2C)CC(C)O1 (stereo not given)
 : 4	0.9	-2	2	4	2	3
- CCOCc1[nH]c(=S)[nH]c(=O)c1Cc1ccc(OCC(C)C)cc1
 : 1	1.9	0	5	-1	16	1
- COc1ccccc1[N+](=O)[O-]
 : -4	nt	-2	-2	nt	nt	nt
- COc1ccccc1C(=O)NCCNC(=O)c1ccco1
 : -3	2.5	-7	6	-1	-3	-3
- Clc1cc(Cl)c(Cl)cc1Cl
 : -7	nt	-5	1	nt	nt	nt
- CN1CCN(CC(O)COCCOc2ccc(Br)cc2)CC1 (stereo not given)
 : -9	1.7	-2	-1	0	7	2
- c1ccc(N(c2ccccc2)c2nc(N3CCCC3)nc(-n3ccnc3)n2)cc1
 : 8	-0.3	6	-4	4	-5	0
- C=CCn1cc(/C=N\NC(=O)c2cc3c(ccc4ccccc43)o2)c2ccccc21
 : 23	-2.9	1	-1	-4	8	17
- COc1ccc(C(Cl)=C(c2ccc(OC)cc2)c2ccc(OC)cc2)cc1
 : -5	-1.4	-4	2	0	5	1
- O=C(NCCc1ccccc1)Nc1ccc(Cl)cc1
 : 0	-0.2	-1	5	-3	0	3
- O=C(COC(=O)c1cc(F)c(F)cc1Cl)NC1CC1
 : -5	-0.8	2	2	-2	11	0
- O=C(Nc1ccccn1)c1cc(-c2cccnc2)nc2ccc(Br)cc12
 : 3	0.6	4	1	-1	4	-9
- CC(C)NCC(O)COc1ccc(CCOCC2CC2)cc1 (stereo not given)
 : 1	-0.5	-1	1	0	-1	2
- CCOCCCN(C(=O)Nc1ccc(CC)cc1)C1CCN(C(C)=O)CC1
 : -3	-1.2	0	4	-1	5	0
- COc1ccc(F)cc1C(=O)C1CCCN(Cc2cccn2-c2cccnc2)C1 (stereo not given)
 : -1	2.1	-2	-8	2	-5	3
- Fc1ccc(CNCc2cccc(Br)c2)cc1
 : -9	1.9	-2	4	-1	9	-4
- Cc1ccc(C(=O)Nc2c(C(=O)NCc3ccco3)cnn2-c2ccccc2)cc1
 : -4	1.5	0	8	4	-7	-1
- CC1CN=C(N(C(=O)Nc2ccccc2)C(C)c2ccccc2)S1 (stereo not given)
 : 1	-0.8	2	1	-2	2	-5
- CCCCc1nc2ccccc2c(NC(=O)CN2CCCC2)c1CCC
 : 6	0.5	-3	2	-1	1	0
- OC(CCN1CCCCC1)(c1ccccc1)C1C[C@@H]2C=C[C@H]1C2 (stereo not given in full)
 : 4	nt	1	1	-1	-1	-6
- CCCc1nc(NCc2ccncc2)c2nnn(Cc3ccccc3F)c2n1
 : 2	-2.3	-2	-4	-5	2	5
- O=C(OCC(O)CO)c1ccccc1Nc1ccnc2cc(Cl)ccc12 (stereo not given)
 : 2	nt	2	3	1	-4	2
- CN1CCN(c2ccccc2NC(=O)c2cccc([N+](=O)[O-])c2)CC1
 : -1	0.9	-7	-2	2	6	-4
- CCC(C)c1ccc(NC(=S)Nc2ccc(OC)cc2C)cc1 (stereo not given)
 : -1	-2.5	-2	-1	-3	0	4
- Cc1cc(NC(=O)CSc2nc3sc4c(c3c(=O)n2C)CCCC4)no1
 : 2	nt	1	3	-4	4	0
- Cn1c(NCc2ccco2)nc2c1c(=O)n(Cc1ccc(Cl)cc1Cl)c(=O)n2C
 : 2	0.9	0	4	1	1	3
- O=C(Nc1nccs1)c1cc2cc(Cl)ccc2oc1=O
 : -4	2.2	1	6	-1	9	2
- COc1ccc(S(=O)(=O)N2CCCN(CCC(=O)Nc3cccc(C(F)(F)F)c3)CC2)cc1
 : -1	nt	-3	6	-5	-4	-1
- CCOC(=O)Cc1csc(NC(=O)c2sc3nc4cc(C)ccc4cc3c2N)n1
 : 46*	-50*	-5	-17	11	2	4
- NC[C@H](O)c1ccc(O)c(O)c1
 : 1	nt	1	1	4	8	-1
- COCCn1c(=NC(=O)CSC(C)=O)sc2cc(OC)ccc21
 : -3	0.5	11	4	-4	1	-2
- CCc1cccc2c(C(=O)COC(=O)C3=NNC(=O)CC3)c[nH]c12
 : -7	-0.5	-2	3	0	5	-3
- CCN1CCN(C(c2ccccn2)c2c(NC(=O)c3ccccc3)sc(C)c2C)CC1 (stereo not given)
 : 3	-1.0	-2	4	-2	6	3
- O=C1c2ccc3c4c(ccc(c24)C(=O)N1c1ccc(O)cc1)C(=O)N(c1ccc(O)cc1)C3=O
 : -1	-1.2	-3	3	-2	6	-3
- CC(=O)[C@@]1(O)CC[C@H]2[C@@H]3C[C@H](C)C4=CC(=O)C=C[C@]4(C)[C@@]3(F)[C@@H](O)C[C@@]21C
 : -4	-0.5	0	12	0	5	1
- CCc1ccc(NC(=O)N(CCCOC(C)C)C2CCN(C(C)=O)CC2)cc1
 : 2	1.0	-3	1	2	5	2
- O=C(O[C@@H](C(=O)O)[C@@H](OC(=O)c1ccccc1)C(=O)O)c1ccccc1
 : -2	nt	-2	-2	nt	nt	nt
- Cc1nc(-c2cccnc2)sc1C(=O)N/N=C/c1ccccc1Cl
 : -4	-1.0	3	2	-3	-4	-6
- COc1cc(OC)c(OC)cc1/C=N/Nc1ncnc2c1[nH]c1ccc(C)cc12
 : 6	0.1	1	-1	0	4	2

# An excerpt from further up:
# Values in the order – PME-1 inh	MEX-5 binding	PAD4 inh	GLD-1 RNA inh	TPT1 inhibitor	GSTO1 inh	Fam108B counter
- CCc1ccc(NC(=O)N(CCCOC(C)C)C2CCN(C(C)=O)CC2)cc1
 : 2	1.0	-3	1	2	5	2
- O=C(O[C@@H](C(=O)O)[C@@H](OC(=O)c1ccccc1)C(=O)O)c1ccccc1
 : -2	nt	-2	-2	nt	nt	nt
- Cc1nc(-c2cccnc2)sc1C(=O)N/N=C/c1ccccc1Cl
 : -4	-1.0	3	2	-3	-4	-6
- COc1cc(OC)c(OC)cc1/C=N/Nc1ncnc2c1[nH]c1ccc(C)cc12
 : 6	0.1	1	-1	0	4	2

# Next structures follow.
# Values in the order – PME-1 inh	MEX-5 binding	PAD4 inh	GLD-1 RNA inh	TPT1 inhibitor	GSTO1 inh	Fam108B counter
- CCC(C)(C)n1nnnc1C(c1cccs1)N1CCc2ccccc21 (stereo not given)
 : 3	-0.2	-3	-1	3	3	1
- CCOC(=O)C(NC(=O)CC)(Nc1sc2c(c1C(=O)OC)CCN(C)C2)C(F)(F)F (stereo not given)
 : -5	-0.9	2	3	-2	2	4
- O=C(Oc1oc(-c2ccco2)nc1C=Nc1ccccc1)c1ccco1
 : -1	4.3	-6	-11	-1	2	0
- COc1ccc(C2C(C(=O)OCC3CCCO3)=C(C)NC3=C2C(=O)CC(c2ccco2)C3)cc1O (stereo not given)
 : -2	1.4	-1	4	1	-4	1
- CCCCc1ccc(NC(=O)CC(C)C)cc1
 : 1	-3.5	-1	3	2	3	-1
- O=C(N/N=C/c1ccoc1)c1cc(O)cc(O)c1
 : 0	-5.4	-1	0	3	22	12
- Cc1ccc(CNC(=O)C2COc3ccccc3O2)cc1 (stereo not given)
 : -3	-2.2	-4	-2	1	10	0
- CC1=CC(=O)c2ccccc2C1=O
 : -10&0	-3.0	-8&-4	4&6	4&-2	39*!	6&0
- CC(CC(=O)c1cccs1)CC(=O)c1cccs1
 : -1	-0.6	2	4	1	2	0
- NCCCC[C@H](N[C@@H](CCc1ccccc1)C(=O)O)C(=O)N1CCC[C@H]1C(=O)O
 : -6&-8	0.8	-4&1	2&1	2&2	6&4	2&1
- CCOCCCNC(=O)c1ccc2c(=O)n(CCCOCC)c(=S)[nH]c2c1
 : 0	-2.5	-7	-3	2	8	-3
- O=C1CCC(=O)O1
 : 5	nt	5	3	nt	nt	nt
- Nc1ncnc(Nc2cccc(F)c2)n1
 : 1	-0.4	1	2	1	2	0
- COc1ccc(OC)c2sc(NC(=O)c3ccc(Cl)s3)nc12
 : -3	-1.2	-2	-9	-3	-28	-5
- O=Cc1cccc(OC(=O)/C=C/c2ccco2)c1
 : -2	-0.4	-1	-10	-1	6	-1
- CCOC(=O)NC(Nc1sc2c(c1C(N)=O)CCCC2)(C(=O)OCC)C(F)(F)F (stereo not given)
 : 4	-1.5	-1	5	2	12	0
- C=CCOC(=O)CCCCCCCC
 : -5	nt	-2	3	nt	nt	nt
- CC(=O)OCC(=O)[C@@]1(O)CC[C@H]2[C@@H]3CCC4=CC(=O)CC[C@]4(C)[C@H]3C(=O)C[C@@]21C
 : 4	2.2	4	11	-4	-1	3
- Cc1onc(-c2ccccc2Cl)c1C(=O)NCc1ccco1
 : -3	-3.3	8	2	4	15	8
- O=C(N(c1ccccn1)c1ccccn1)C12CC3CC(CC(C3)C1)C2
 : 0	0.8	2	-5	2	3	2
- CCOC(=O)N1CCN(c2nc(N(c3ccccc3)c3ccccc3)nc(-n3ccnc3)n2)CC1
 : 1	-0.7	0	3	-6	8	0
- CCOc1ccc(N2C(=O)S/C(=C\c3ccc(O)c(OC)c3)C2=O)cc1
 : 3	-1.8	-5	-93	66*	-3	-5

# Printed as active in MEX-5 binding, of those listed so far:
Compound	PME-1 inh	MEX-5 binding	PAD4 inh	GLD-1 RNA inh	TPT1 inhibitor
CCOC(=O)Cc1csc(NC(=O)c2sc3nc4cc(C)ccc4cc3c2N)n1	46*	-50*	-5	-17	11
